PAFAH1B3 inh: PAFAH1B3 enzyme inhibitors, primary screen, biochemical, fluorescence polarization, human | Platelet-activating factor acetylhydrolase IB subunit alpha1 (Homo sapiens), Q15102 | recombinant PAFAH1B3, FP-rhodamine probe | inhibition, % at 3.39 µM | 0.28% of 340,000 active | AID 492972, 2010;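 active means inhibition above the screen-wide average of all tested compounds plus 3 SD, cut at about 25% in these data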;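 further: 0% = enzyme with DMSO only and 100% = wells lacking PAFAH1B3 protein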
Target sequence (Q15102 whole entry, looked up): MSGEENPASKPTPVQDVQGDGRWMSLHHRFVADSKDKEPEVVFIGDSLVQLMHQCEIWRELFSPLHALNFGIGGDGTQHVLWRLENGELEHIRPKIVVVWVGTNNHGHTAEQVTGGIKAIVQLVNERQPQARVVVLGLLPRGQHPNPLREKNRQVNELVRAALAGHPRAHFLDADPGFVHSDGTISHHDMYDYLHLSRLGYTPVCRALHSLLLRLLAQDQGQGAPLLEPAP
pPAFAH FP inh: pPAFAH enzyme inhibitors, primary screen, biochemical, fluorescence polarization, human; inhibition, % at 3.39 µM; 1.5% of 330,000 active; recombinant pPAFAH, FP-rhodamine probe fluorescence polarization; AID 463082, 2010; Platelet-activating factor acetylhydrolase (Homo sapiens), Q13093;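 active means inhibition above the mean inhibition across the screen plus 3 SD, cut at about 25% in these data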;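 further: inhibitors block binding of the rhodamine activity-based probe so polarization drops; 0% = enzyme with DMSO and 100% = wells lacking pPAFAH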
LYPLA2 counter: LYPLA2 inhibitors, primary screen, counter-screen for PME1 inhibitor project, biochemical, fluorescence polarization, FP-Rh probe ABPP; Acyl-protein thioesterase 2 (Homo sapiens), O95372; recombinant LYPLA2; inhibition, % at 5.9 µM; 0.38% of 320,000 active; AID 2177, 2009;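 active means inhibition above the screen-wide mean plus 3 SD, limit set per campaign, cut at about 26% in these data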;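 further: 0% = LYPLA2 with DMSO and 100% = wells lacking LYPLA2 enzyme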
Target sequence (O95372 whole entry, looked up): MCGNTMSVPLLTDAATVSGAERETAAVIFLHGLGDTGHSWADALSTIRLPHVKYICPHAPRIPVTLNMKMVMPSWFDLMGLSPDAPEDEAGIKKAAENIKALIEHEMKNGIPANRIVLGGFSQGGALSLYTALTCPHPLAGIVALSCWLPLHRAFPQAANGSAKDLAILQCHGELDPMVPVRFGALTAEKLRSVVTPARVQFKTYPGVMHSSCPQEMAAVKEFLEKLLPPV
LYPLA1 inh: LYPLA1 inhibitors, primary screen, counter-screen for PME1 inhibitor project, biochemical, fluorescence polarization, FP-Rh probe ABPP; Acyl-protein thioesterase 1 (Homo sapiens), O75608; recombinant LYPLA1; inhibition, % at 5.9 µM; 0.16% of 320,000 active; AID 2174, 2009;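 active means inhibition above the mean of all tested compounds plus 3 SD, set per campaign, cut at about 14% in these data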;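 further: inhibitors block serine hydrolase probe labeling of LYPLA1 so polarization falls; 0% = enzyme with DMSO and 100% = wells lacking LYPLA1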
PME-1 primary: PME-1 inhibitors via competitive probe labeling, primary screen, biochemical, fluorescence polarization, FP-Rh probe, HTS; AID 2130, 2009; 0.53% of 320,000 active; recombinant PME-1; Protein phosphatase methylesterase 1 (Homo sapiens), Q9Y570; inhibition, % at 5.9 µM;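 active means inhibition above the campaign mean of all compounds plus 3 SD, cut at about 26% in these data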;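 further: competitive labeling of PME-1 active site by serine hydrolase directed probe; 0% = PME-1 with DMSO and 100% = wells lacking PME-1 enzyme; inhibitors block probe labeling so polarization falls and inhibition rises; many of its hits are not listed in these tables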
PAFAH2 FP inh: PAFAH2 enzyme inhibitors, primary screen, biochemical, fluorescence polarization, human; 0.99% of 340,000 active; recombinant PAFAH2, FP-rhodamine activity probe; inhibition, % at 3.39 µM; Platelet-activating factor acetylhydrolase 2, cytoplasmic (Homo sapiens), Q99487;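 active means inhibition above the mean over all tested compounds plus 3 SD, cut at about 30% in these data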;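 further: inhibitors block probe labeling of enzyme so polarization drops; 0% = enzyme with DMSO and 100% = wells lacking PAFAH2 protein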
PAD4 FP inh: human PAD4 inhibitors, primary screen, biochemical, fluorescence polarization, 1536-well format; Protein-arginine deiminase type-4 (Homo sapiens), Q9UM07; recombinant PAD4, RCA probe fluorescence polarization; inhibition, % at 6.36 µM; 0.41% of 330,000 active;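 active means percent inhibition above a cutoff equal to the mean of all tested compounds plus 3 SD, cut at about 15% in these data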;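 further: 0% = PAD4 with RCA probe and DMSO and 100% = probe without PAD4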
PAFAH1B2 inh: PAFAH1B2 enzyme inhibitors, primary screen, biochemical, fluorescence polarization, human. recombinant PAFAH1B2, FP-rhodamine activity probe. inhibition, % at 3.39 µM. 1.2% of 340,000 active. AID 492953, 2010;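 active means inhibition above the mean of all tested compounds plus 3 SD, cut at about 24% in these data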;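 further: 0% = enzyme with DMSO and 100% = wells lacking PAFAH1B2; many of its hits are not listed in these tables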
Target sequence (P68402 whole entry, looked up): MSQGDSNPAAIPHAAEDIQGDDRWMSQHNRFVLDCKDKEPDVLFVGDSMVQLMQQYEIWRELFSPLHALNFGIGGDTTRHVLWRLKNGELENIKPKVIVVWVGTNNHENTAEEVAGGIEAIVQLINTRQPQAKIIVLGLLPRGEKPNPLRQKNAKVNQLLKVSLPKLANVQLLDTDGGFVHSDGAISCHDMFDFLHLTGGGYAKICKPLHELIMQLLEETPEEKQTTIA
* hit, by the source's call; . = no result given.

SMILES | PAFAH1B3 inh | pPAFAH FP inh | LYPLA2 counter | LYPLA1 inh | PME-1 primary | PAFAH2 FP inh | PAD4 FP inh | PAFAH1B2 inh
COc1ccc(OC)c(NC(=O)C2C(C(=O)O)C3(Cl)C(Cl)=C(Cl)C2(Cl)C3(Cl)Cl)c1 (stereo unspecified) | 3.0 | -1.0 | 1.4 | 3.2 | -1.3 | 50.5* | -6.6 | 5.7
Cc1ccc(Nc2nc(N)nc(CN3CCN(C(=O)c4ccco4)CC3)n2)cc1Cl | -1.5 | 3.1 | -1.8 | -4.8 | 0.8 | 3.6 | -5.3 | -2.5
Nc1nc(CSc2ncccn2)nc(Nc2ccccc2)n1 | 3.7 | 4.5 | -5.5 | -1.5 | 1.3 | -13.4 | -4.4 | 4.2
COc1ccc(-c2cc(CNC(=O)CCl)on2)cc1 | 0.2 | 2.9 | 2.8 | 2.1 | -1.5 | -4.8 | -0.9 | -3.1
O=C(CCl)Nc1cccn2ncnc12 | 7.2 | -6.0 | -6.1 | -6.5 | 5.6 | -5.9 | 0.5 | 0.6
N#Cc1ccc(COC(=O)c2ccc3c(=O)[nH]c(CN4CCOCC4)nc3c2)cc1 | -5.8 | -8.1 | 25.4 | 4.5 | -1.1 | -2.4 | -3.8 | 3.6
O=[N+]([O-])c1cc(/C=N/n2c(-c3ccncc3)n[nH]c2=S)ccc1Cl | 1.4 | 12.2 | 2.9 | 2.1 | -5.0 | 11.1 | 6.5 | 6.5
N#Cc1c(N)n(CCc2ccc(F)cc2)c2nc3ccccc3nc12 | 7.1 | -7.8 | -15.6 | -5.6 | 22.1 | -1.5 | -5.4 | 4.3
O=C(O)c1ccc(N=Cc2c(O)ccc3ccccc23)cc1 | 3.5 | 0.2 | -4.2 | -0.9 | 1.1 | 6.4 | -7.7 | 4.8
O=C(Nc1nc(-c2ccccn2)cs1)c1ccc(Br)s1 | 3.4 | 8.9 | -2.9 | -12.2 | -5.8 | -5.6 | -8.0 | -1.3
CC(=O)Oc1ccc(N(C(C)=O)S(=O)(=O)c2ccc3ccccc3c2)cc1Br | 7.4 | 4.2 | -0.9 | -1.0 | 6.9 | -2.3 | 0.0 | 4.5
CC(=O)Nc1ccc(S(=O)(=O)NCCSCc2cccc(Cl)c2)cc1 | -5.4 | 18.2 | 0.9 | -0.6 | 8.2 | 2.4 | -4.1 | 14.8
CCSc1nnc(NC(=O)CSC2=NCCS2)s1 | 6.0 | 7.8 | -3.0 | -0.1 | 2.4 | 0.0 | -2.5 | 1.5
CCCC(O)(CCC)C(=O)NN(C(=O)CCl)c1cccc(C)c1 | 5.3 | 6.3 | 0.9 | 1.8 | 2.1 | 0.5 | 1.6 | 1.8
COc1ccc(-c2csc(CCN3N=C(C)CC3=O)n2)cc1 | 12.4 | 9.9 | 6.1 | -2.1 | 4.5 | 8.7 | -16.9 | -2.2
Cn1c(=O)n(C)c2cc(NC(=O)CCl)ccc21 | -3.6 | 2.9 | -0.6 | 3.0 | 7.2 | -1.8 | -2.5 | -5.5
CCCc1nnc(SCC(=O)Nc2ccc(C(=O)OCC)cc2)o1 | 7.8 | -0.5 | 3.6 | -2.8 | -3.8 | -5.9 | 1.4 | -2.0
Cc1csc(SCC(=O)Nc2nnc(C)s2)n1 | 2.2 | 5.3 | 3.2 | -2.3 | 1.4 | 0.2 | 0.7 | -0.4
O=C(N/N=C/c1ccc([N+](=O)[O-])s1)c1ccncc1 | 8.9 | 2.1 | -0.8 | 0.3 | -0.4 | 10.6 | 6.7 | 2.8
NS(=O)(=O)OCCCCCc1ccccc1 | 6.1 | 5.1 | -5.0 | -0.6 | 2.2 | 5.0 | -2.6 | 10.4

Profiles from above.
`Cn1c(=O)n(C)c2cc(NC(=O)CCl)ccc21` is listed with PAFAH1B3 inh: -3.6; pPAFAH FP inh: 2.9; LYPLA2 counter: -0.6; LYPLA1 inh: 3.0; PME-1 primary: 7.2; PAFAH2 FP inh: -1.8; PAD4 FP inh: -2.5; PAFAH1B2 inh: -5.5
`COc1ccc(-c2cc(CNC(=O)CCl)on2)cc1` is listed with PAFAH1B3 inh: 0.2; pPAFAH FP inh: 2.9; LYPLA2 counter: 2.8; LYPLA1 inh: 2.1; PME-1 primary: -1.5; PAFAH2 FP inh: -4.8; PAD4 FP inh: -0.9; PAFAH1B2 inh: -3.1

Remaining list, next part
SMILES | PAFAH1B3 inh | pPAFAH FP inh | LYPLA2 counter | LYPLA1 inh | PME-1 primary | PAFAH2 FP inh | PAD4 FP inh | PAFAH1B2 inh
CCOC(=O)CSC(CC)C(=O)Nc1nnc(C(C)C)s1 (stereo unspecified) | 0.0 | 2.3 | 8.4 | 2.2 | 8.1 | 4.6 | 2.3 | 3.4
O=C(Cc1c(F)cccc1Cl)Nc1cccc(S(=O)(=O)NC2=NCCCCC2)c1 | 5.9 | 13.1 | 1.6 | 2.4 | 1.6 | -5.9 | -0.3 | -0.8
O=C(CN1C(=O)C2CCCCC2C1=O)Nc1cc(C(F)(F)F)ccc1N1CCCC1 (stereo unspecified) | 5.9 | 8.0 | -0.3 | 0.4 | 1.0 | 16.6 | -5.4 | 5.6
CC(C)(C)C1CCc2sc(-c3nnc(CCl)o3)cc2C1 (stereo unspecified) | 1.5 | 4.4 | 1.8 | 1.9 | -2.3 | 7.7 | 4.2 | 7.7
CC1=NN(c2nc(-c3ccc(Cl)cc3)cs2)C(=O)C1 | 6.8 | 12.6 | -12.9 | -8.3 | -8.4 | 21.3 | -16.9 | 7.0
Cc1ccc(NC(=O)COC(=O)C(NS(=O)(=O)c2ccc(Cl)cc2)C(C)O)cc1C (stereo unspecified) | 5.6 | 9.3 | 0.5 | -0.2 | -0.1 | 8.3 | -3.9 | 3.3
Cc1cc(C)c(S(=O)(=O)N2CCOCC2)cc1NS(=O)(=O)c1cc(OCC(N)=O)c(C)cc1Cl | 4.3 | 6.4 | -1.6 | -2.2 | 6.5 | 7.3 | -3.7 | 13.8
O=C(CCl)NCCCN(C(=O)C(Cl)Cl)c1ccc([N+](=O)[O-])cc1 | 3.1 | 1.4 | 2.4 | -0.3 | -2.5 | 3.7 | 0.0 | 3.7
COc1ccc(OCCOC(=O)c2cc(S(=O)(=O)N3CCOCC3)c(Cl)cc2Cl)cc1 | -7.1 | 3.8 | -0.5 | -5.2 | 0.8 | 1.3 | 0.8 | -2.4
O=C(COc1ccc(C(=O)c2ccccc2)cc1)NCC1CCCCC1 | 6.1 | 4.8 | 9.1 | -1.6 | 2.4 | 6.2 | -1.7 | 8.1
CCc1nc(SCC(=O)c2ccc(C)c(C)c2)n[nH]1 | -0.1 | 1.8 | -1.5 | -0.4 | -3.7 | 8.9 | 2.2 | -0.9
CC1Cc2nc(SCC(=O)Nc3ccccc3F)n(C)c(=O)c2S1 (stereo unspecified) | -0.7 | -1.4 | -4.1 | -2.7 | 5.2 | -1.5 | -3.3 | 6.4
CC(=O)n1c(Cl)c(NC(=O)CCl)c2ccccc21 | 4.0 | -0.7 | 9.1 | 5.1 | 1.2 | -1.6 | 0.8 | 1.8
Cc1ccc(C(=O)CSc2n[nH]c(C)n2)cc1 | 8.2 | 0.4 | 11.1 | 6.7 | 5.6 | -2.9 | 0.1 | 7.7
Cc1cc(C(=O)CN2C(=O)c3ccccc3C2=O)c(C)n1C1CC1 | -1.4 | 5.2 | 9.7 | -0.2 | -0.4 | 1.6 | -4.3 | 3.7
CS/C(=C(/C#N)S(=O)(=O)c1ccc(Cl)cc1)N1CCOCC1 | . | -3.1 | 11.6 | 2.7 | -2.6 | . | -4.2 | .
Cc1ccc(/C=N/n2c(C)n[nH]c2=S)o1 | 3.5 | 1.7 | 5.2 | 0.4 | 1.6 | -4.5 | 4.3 | -0.7
N=c1sc2ccccc2n1-c1ccccc1 | -1.0 | 1.4 | -2.5 | 0.2 | 0.6 | 1.5 | -2.2 | 1.6
Cc1cc2oc(=O)cc(C)c2cc1NC(=O)CCl | . | 0.9 | -0.5 | -2.5 | -1.5 | . | 8.1 | .

An excerpt from above in order of length of the SMILES, smallest number first:
SMILES | PAFAH1B3 inh | pPAFAH FP inh | LYPLA2 counter | LYPLA1 inh | PME-1 primary | PAFAH2 FP inh | PAD4 FP inh | PAFAH1B2 inh
CC(=O)n1c(Cl)c(NC(=O)CCl)c2ccccc21 | 4.0 | -0.7 | 9.1 | 5.1 | 1.2 | -1.6 | 0.8 | 1.8
CCc1nc(SCC(=O)c2ccc(C)c(C)c2)n[nH]1 | -0.1 | 1.8 | -1.5 | -0.4 | -3.7 | 8.9 | 2.2 | -0.9
O=C(COc1ccc(C(=O)c2ccccc2)cc1)NCC1CCCCC1 | 6.1 | 4.8 | 9.1 | -1.6 | 2.4 | 6.2 | -1.7 | 8.1
Cc1cc(C)c(S(=O)(=O)N2CCOCC2)cc1NS(=O)(=O)c1cc(OCC(N)=O)c(C)cc1Cl | 4.3 | 6.4 | -1.6 | -2.2 | 6.5 | 7.3 | -3.7 | 13.8

Assay outcomes (PubChem BioAssay)

Only part of the results is shown; rates above refer to the full screens.
